Assay outcomes (PubChem BioAssay)
Vif TR-FRET = HIV-1 Vif–A3G interaction blockers – biochemical, TR-FRET, GST-Vif 1-94, biotin-A3G peptide, dose response retest, primary screen (AID 1117319) | TR-FRET GST-Vif / biotin-A3G peptide binding; higher % means a stronger effect; test concentration not given here; strong numbers were not always called active | inhibition, %, or IC50 in µM where a hit was titrated | 0.57% of 260,000 active;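 active = above the screen mean plus three standard deviations and confirmed in dose response; inconclusive = results disagree or hit not tested in dose response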;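 also: Vif residues 1-94 fused to GST binding biotinylated APOBEC3G peptide 110-148; 0% = full assay without inhibitor and 100% = GST in place of GST-Vif; retest series ran down from 100 µM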
Calb FLC = affects C. albicans growth with fluconazole. C. albicans CaCi-2 (fluconazole-resistant clinical isolate) + fluconazole, Alamar Blue growth, 48 h. growth inhibition, % (concentration not given with the values). 0.57% of 300,000 active. AID 1979;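 active = most replicates above 75%; inconclusive = exactly half above 75%; inactive = most below 75%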;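 also: all wells also contain fluconazole at 8 µg/ml as a sub-toxic cotreatment; 0% = median of DMSO wells and 100% = median of geldanamycin control wells; wells of about 8 µL received 7.5 nL stock; the first replicate is given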
ALR H2O2 inh = blocks human ALR sulfhydryl oxidase activity | P55789 | purified ALR, DTT oxidation, H2O2 HRP-luminol luminescence | inhibition, % (concentration not given with the values) | 3.8% of 290,000 active | AID 485317;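 active = mean and each replicate at 75% or more; inconclusive = only one of the two met; inactive = neither met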;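 also: stock transfer was 7.5 nL into about 7.5 µL; 0% = neutral wells and 100% = wells with inactivated enzyme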
Target sequence (P55789 whole entry, looked up): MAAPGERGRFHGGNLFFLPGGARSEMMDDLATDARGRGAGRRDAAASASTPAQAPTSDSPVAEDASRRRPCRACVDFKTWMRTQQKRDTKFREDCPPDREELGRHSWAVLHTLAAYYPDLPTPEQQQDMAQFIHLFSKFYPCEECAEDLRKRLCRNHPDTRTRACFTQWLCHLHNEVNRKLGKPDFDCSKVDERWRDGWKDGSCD
Beta2AR agonist = human beta-2 adrenergic receptor agonism by FAP; P07550; Am2.2-beta2AR cells, FAP receptor internalization, flow cytometry; reference of the scale not given here; response, % (concentration not given with the values); 0.43% of 340,000 active; AID 504454;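 active = response above a set limit, near 3 SD of response in nonfluorescent compounds, cut at about 42% in these data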;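 also: stock transfer was 100 nL into about 11 µL; a reference agonist was the positive control; negative values mostly stem from fluorescent compounds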
Target sequence (P07550 whole entry, looked up): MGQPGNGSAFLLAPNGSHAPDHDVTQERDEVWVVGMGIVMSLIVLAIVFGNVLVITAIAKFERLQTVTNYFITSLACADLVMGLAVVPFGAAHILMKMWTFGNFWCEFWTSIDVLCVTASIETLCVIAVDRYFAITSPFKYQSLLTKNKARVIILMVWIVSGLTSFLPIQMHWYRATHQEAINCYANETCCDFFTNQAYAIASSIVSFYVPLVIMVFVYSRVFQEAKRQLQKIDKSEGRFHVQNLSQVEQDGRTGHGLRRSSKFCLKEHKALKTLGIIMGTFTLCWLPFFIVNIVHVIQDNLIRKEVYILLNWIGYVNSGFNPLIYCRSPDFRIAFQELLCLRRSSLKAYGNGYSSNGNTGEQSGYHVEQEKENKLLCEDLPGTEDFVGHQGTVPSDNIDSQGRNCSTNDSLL
RanGTP-Impb inh = disruptors of Ran-importin-beta complex formation – biochemical, FRET, CFP-Ran, YFP-importin-beta, homogeneous, primary screen. cell-free CFP-Ran/YFP-importin-beta FRET ratio. inhibition, % (test concentration not listed). 1.1% of 300,000 active. AID 2216;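 active = most replicates above 15%; inconclusive = exactly half above 15%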;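 also: 0% = DMSO wells and 100% = Ran loaded with GDP instead of GTP; wells of about 40 µL received 100 nL stock; the first replicate is given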
HNF4A DNA FP = change in binding of human HNF4 alpha to DNA; P41235; HNF4a-FITC DNA binding, fluorescence polarization, 1 h; 0.3% of 360,000 active; AID 1224865; activity change, % at 10 µM; in the data active = activity change above about 30%, passing the limit was not always enough;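 also: controls were the assay level and a saturating level of protein; the project sought stronger binding though the title names inhibitors; some compounds called inactive have numbers as strong as hits; positive values seem to mean higher polarization but the record does not say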
Target sequence (P41235 whole entry, looked up): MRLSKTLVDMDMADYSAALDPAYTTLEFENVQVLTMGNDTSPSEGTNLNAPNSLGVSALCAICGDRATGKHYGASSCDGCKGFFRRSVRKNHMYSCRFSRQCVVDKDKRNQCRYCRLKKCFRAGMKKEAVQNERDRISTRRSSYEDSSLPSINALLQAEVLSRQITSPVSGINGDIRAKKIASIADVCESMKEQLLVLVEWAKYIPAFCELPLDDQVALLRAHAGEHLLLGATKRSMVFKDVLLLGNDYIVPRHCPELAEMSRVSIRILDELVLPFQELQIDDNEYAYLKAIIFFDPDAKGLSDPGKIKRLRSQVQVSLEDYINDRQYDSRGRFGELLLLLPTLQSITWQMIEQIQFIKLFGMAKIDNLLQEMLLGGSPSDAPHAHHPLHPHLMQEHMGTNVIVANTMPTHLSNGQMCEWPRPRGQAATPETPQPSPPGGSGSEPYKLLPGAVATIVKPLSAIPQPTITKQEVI
LANA-H2B inh = blocks KSHV LANA binding to histone H2A/H2B; inhibition, % (no concentration beside the values); cell-free LANA-H2A/H2B peptide, fluorescence polarization; Q9QR71; 0.6% of 320,000 active; in the data active = inhibition mostly above about 10%, no sharp cut-off; inactive = mostly below about 6.7%;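 also: stock transfer was 7.5 nL into about 10 µL; 0% = median of vehicle wells and 100% = median of positive control wells; one replicate is shown; the record names a cut of 25% in any replicate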
The depositor's hits bear a star; & = joins results of further samples.

CC1=NC(C)(C)Cc2ccccc21 was read as Vif TR-FRET 2%, Calb FLC 16, ALR H2O2 inh -2, Beta2AR agonist 0, RanGTP-Impb inh -0.6, HNF4A DNA FP -2.0 and LANA-H2B inh -1.6.
CCOc1ccc(Br)cc1S(=O)(=O)Nc1ccc(Cl)c(S(=O)(=O)N(CC)c2ccccc2)c1 was read as Calb FLC 2, ALR H2O2 inh -2, Beta2AR agonist 5, RanGTP-Impb inh inconclusive, HNF4A DNA FP -0.3 and LANA-H2B inh -7.7.
O=C(O)c1ccc(S(=O)(=O)c2ccc3c(c2)C(=O)N(CC2CCCO2)C3=O)cc1 (configuration not stated) was read as Vif TR-FRET 1%, Calb FLC 4, ALR H2O2 inh 1, Beta2AR agonist -1, RanGTP-Impb inh -3.3, HNF4A DNA FP -3.2 and LANA-H2B inh -1.6.
`Cc1cc2ncn(CC(O)COc3cccc(C(=O)O)c3)c2cc1C` (configuration not stated) gave Vif TR-FRET 26%, Calb FLC -7, ALR H2O2 inh 19, Beta2AR agonist 5, RanGTP-Impb inh 1.4, HNF4A DNA FP -2.1 and LANA-H2B inh 0.9.
Screening Cc1n[nH]c(=O)c2c(NC(=O)CSc3ccccc3Cl)oc(C)c12 returned Calb FLC 2, ALR H2O2 inh 15, Beta2AR agonist 2, RanGTP-Impb inh 4.4, HNF4A DNA FP 1.9 and LANA-H2B inh 2.1.
`COC(=O)CCC(=O)Nc1sc(C)c(C)c1C(N)=O` gave Vif TR-FRET -5%, Calb FLC 6, ALR H2O2 inh 17, Beta2AR agonist -5, RanGTP-Impb inh 1.1, HNF4A DNA FP 0.8 and LANA-H2B inh 1.1.
Screening COc1ccccc1NC(=O)COc1ccccc1C(=O)c1cnn(-c2ccccc2)c1 returned Vif TR-FRET -5%, Calb FLC -4, ALR H2O2 inh -10, Beta2AR agonist -18, RanGTP-Impb inh 1.5, HNF4A DNA FP 1.7 and LANA-H2B inh 2.0.
Cc1ccc(N(CCC(=O)N2CCOCC2)S(=O)(=O)c2ccccc2)cc1 was read as Vif TR-FRET -11%, ALR H2O2 inh -2, Beta2AR agonist -1, HNF4A DNA FP -0.7 and LANA-H2B inh 2.2.
Cc1[nH]n(-c2ccc([N+](=O)[O-])cc2)c(=O)c1C=NCCN1CCN(C(=O)c2ccccc2F)CC1 was read as Vif TR-FRET -7%, Calb FLC inconclusive, ALR H2O2 inh -1, Beta2AR agonist 4, RanGTP-Impb inh 1.2, HNF4A DNA FP 1.1 and LANA-H2B inh -0.9.
For Cc1cccc(N2CCN(C(=O)c3cc(S(=O)(=O)N4CCCC4)cn3C)CC2)c1C the results were Calb FLC 7, ALR H2O2 inh -8, Beta2AR agonist 8, RanGTP-Impb inh -1.7, HNF4A DNA FP -0.8 and LANA-H2B inh -2.6.
Screening O=C(Nc1c2c(nn1-c1cccc(Cl)c1)CS(=O)(=O)C2)c1cccs1 returned Calb FLC 2, ALR H2O2 inh 3, Beta2AR agonist 2, RanGTP-Impb inh 2.6, HNF4A DNA FP -3.2 and LANA-H2B inh -4.3.
Screening COn1c(SCc2ccccc2)nc2ccccc2c1=O returned Vif TR-FRET -1%, Calb FLC 16, ALR H2O2 inh 2, Beta2AR agonist 0, RanGTP-Impb inh -0.9, HNF4A DNA FP -3.5 and LANA-H2B inh 8.0.
`Cc1ccccc1NC(=O)c1c(C)cc(=O)oc1C` gave Vif TR-FRET -5%, Calb FLC 0, ALR H2O2 inh -5, Beta2AR agonist 3, RanGTP-Impb inh -2.3, HNF4A DNA FP -0.4 and LANA-H2B inh 3.8.
Screening CCN(CC(=O)Nc1ccccc1OC)C(=O)c1cc(-c2ccccc2)nn1-c1ccccc1 returned Vif TR-FRET -3%, Calb FLC 1, ALR H2O2 inh -5, Beta2AR agonist 11, RanGTP-Impb inh 0.6, HNF4A DNA FP -1.7 and LANA-H2B inh 3.0.
Screening Cc1[nH]c(=O)[nH]c(=O)c1S(=O)(=O)N1CCCC1 returned Vif TR-FRET inconclusive, Calb FLC -2, ALR H2O2 inh 0, Beta2AR agonist -8, RanGTP-Impb inh -1.3, HNF4A DNA FP -0.8 and LANA-H2B inh -1.8.
Screening CCOC(=O)c1nnn(-c2nonc2N)c1COc1cc(C)c(Cl)c(C)c1 returned Calb FLC -1, Beta2AR agonist 6, RanGTP-Impb inh 5.5, HNF4A DNA FP -1.1 and LANA-H2B inh 13.
COc1cccc(CNC(=O)CN2C(=O)COc3ccc(S(=O)(=O)N4CCCCCC4)cc32)c1 was read as Calb FLC -8, ALR H2O2 inh -6, Beta2AR agonist 5, RanGTP-Impb inh -2.8, HNF4A DNA FP -1.1 and LANA-H2B inh 6.2.
For CCOC(=O)N1CCN(c2c(NCCOC)c(=O)c2=O)CC1 the results were Vif TR-FRET -3%, Calb FLC 4, ALR H2O2 inh -7, Beta2AR agonist 5, RanGTP-Impb inh 3.0, HNF4A DNA FP 2.4 and LANA-H2B inh 1.0.
Screening CCC(=Nc1ccc(Cc2ccncc2)cc1)c1c(O)n(C)c(=O)n(C)c1=O returned Vif TR-FRET 10%, Beta2AR agonist 9 and HNF4A DNA FP -0.8.
`CCOC(=O)C1(CCOc2ccccc2)CCN(Cc2cnc(SC)nc2)CC1` gave Vif TR-FRET 6%, Calb FLC -9, ALR H2O2 inh -5, Beta2AR agonist -10, RanGTP-Impb inh -3.3, HNF4A DNA FP 3.3 and LANA-H2B inh -5.1.
CC(=O)c1ccc(N2CCN(S(=O)(=O)c3cc4c(cc3C)NC(=O)CO4)CC2)cc1 was read as Calb FLC -1, ALR H2O2 inh 3, Beta2AR agonist 9, RanGTP-Impb inh 6.2 and HNF4A DNA FP -1.0.
CNC(=O)c1nc(C)c(C2(C)CC(c3ccccc3)=NO2)s1 (configuration not stated) was read as Vif TR-FRET -4%, Calb FLC -3, Beta2AR agonist -4, RanGTP-Impb inh inconclusive, HNF4A DNA FP 5.3 and LANA-H2B inh -1.4.
CCCCNC(=O)c1ccc(Cn2c(=S)[nH]c3c([nH]c4ccc(OC)cc43)c2=O)cc1 was read as Calb FLC -2, ALR H2O2 inh -3, Beta2AR agonist -2, RanGTP-Impb inh 0.2, HNF4A DNA FP 3.7 and LANA-H2B inh -0.2.
Cc1cc(C)c(NC(=O)CCCN2CCCC2)c(C)c1 was read as Calb FLC -7, ALR H2O2 inh 0, Beta2AR agonist -3, RanGTP-Impb inh 3.0, HNF4A DNA FP 0.9 and LANA-H2B inh 5.1.
`CC(=O)Nc1cc2nn(-c3ccccc3)nc2cc1C` gave Vif TR-FRET -4%, Calb FLC 11, ALR H2O2 inh -7, Beta2AR agonist -3, RanGTP-Impb inh 0.4, HNF4A DNA FP -0.8 and LANA-H2B inh 2.0.
`O=C(/C=C/c1ccc(Cl)cc1)NCCCN1CCOCC1` gave Vif TR-FRET -5%, Calb FLC -5, ALR H2O2 inh -15, Beta2AR agonist 7, RanGTP-Impb inh 5.5, HNF4A DNA FP 1.1 and LANA-H2B inh 3.2.
Screening COc1ccc(S(=O)(=O)N2CCC(N3CCCCC3)CC2)cc1 returned Vif TR-FRET -4%, Calb FLC 2, ALR H2O2 inh -3, Beta2AR agonist 8, RanGTP-Impb inh -0.5, HNF4A DNA FP -1.1 and LANA-H2B inh 1.2.
For CCn1c(C2CC(=O)N(c3ccc(C)c(C)c3)C2)nc2ccccc21 (configuration not stated) the results were Calb FLC -3, ALR H2O2 inh 18, Beta2AR agonist -2, RanGTP-Impb inh -0.7, HNF4A DNA FP 2.3 and LANA-H2B inh -10.
CCOc1ccccc1NC(=O)CCS(=O)(=O)c1cccs1 was read as Calb FLC -1, ALR H2O2 inh 2, Beta2AR agonist -6, RanGTP-Impb inh -0.8, HNF4A DNA FP -2.2 and LANA-H2B inh -1.4.
CCC(CC)Nc1ccc(C(CC(N)=O)NC(=O)Cc2cccc3ccccc23)cc1[N+](=O)[O-] (configuration not stated) was read as Calb FLC -11, ALR H2O2 inh 0, Beta2AR agonist 5, RanGTP-Impb inh -0.3, HNF4A DNA FP 13 and LANA-H2B inh 1.2.
Screening COc1ccccc1OCC(=O)Nc1ccc(S(=O)(=O)Nc2nc(C)cc(C)n2)cc1 returned Vif TR-FRET -5%&3%, Calb FLC 3, ALR H2O2 inh 0, Beta2AR agonist 9, RanGTP-Impb inh 1.4, HNF4A DNA FP 0.4 and LANA-H2B inh 4.6.
`CN(CC(=O)Nc1ccc(F)cc1)C(=O)Cn1c(=O)oc2ccccc21` gave Vif TR-FRET 0%, Beta2AR agonist 2, HNF4A DNA FP 9.7 and LANA-H2B inh 2.4.
`CCCCn1c(-c2ccc(C(C)(C)C)cc2)nc2cc3[nH]c(=O)c(C(C)C)nc3cc21` gave Calb FLC 4, ALR H2O2 inh -13, Beta2AR agonist 17, RanGTP-Impb inh -1.8, HNF4A DNA FP 12 and LANA-H2B inh 3.3.
CCc1nn(C(C)C(=O)NC2CCCCCC2)c(=O)c2cc3occc3n12 (configuration not stated) was read as Calb FLC 8, ALR H2O2 inh 0, Beta2AR agonist -16, RanGTP-Impb inh -0.1, HNF4A DNA FP 2.4 and LANA-H2B inh 4.1.
Screening COc1ccc(-c2ccc(SCC(=O)NCc3ccc4c(c3)OCO4)nn2)cc1OC returned Vif TR-FRET -34%, Calb FLC -19, ALR H2O2 inh 28, Beta2AR agonist 7, RanGTP-Impb inh 0.0, HNF4A DNA FP -0.2 and LANA-H2B inh -1.8.
Screening CCc1cc2cc(C(=O)N3CCN(c4ccccc4)CC3)sc2s1 returned Vif TR-FRET -5%, Calb FLC -1, ALR H2O2 inh -1, Beta2AR agonist -4, RanGTP-Impb inh -0.4, HNF4A DNA FP 2.4 and LANA-H2B inh -4.3.
Screening CCCCCCN(C(=O)CCCCCN1C(=O)NC(c2ccc(C3CCCCC3)cc2)C(C(=O)OCc2ccccc2)=C1C)C(C(=O)NCCCC)c1ccc(OCC(=O)OC)c(C(=O)OC)c1 (configuration not stated) returned Vif TR-FRET 6%, Calb FLC 10 and RanGTP-Impb inh 4.0.
For CC(C)NC(=O)c1ccccc1S(=O)(=O)c1ccccc1C#N the results were Vif TR-FRET 1%, Calb FLC -2, ALR H2O2 inh -29, Beta2AR agonist -2, RanGTP-Impb inh -5.7, HNF4A DNA FP 4.8 and LANA-H2B inh 3.6.
`Cc1cc(C(=O)NC(C)c2ccncc2)cs1` (configuration not stated) gave Vif TR-FRET -5%, Calb FLC 14, ALR H2O2 inh -8, Beta2AR agonist -1, RanGTP-Impb inh 1.6, HNF4A DNA FP 5.4 and LANA-H2B inh 1.2.
Screening COCCSc1ccccc1C(=O)Nc1ccc([N+](=O)[O-])cc1OC returned Vif TR-FRET -4%, Calb FLC 12, ALR H2O2 inh -25, Beta2AR agonist 0, RanGTP-Impb inh 6.8, HNF4A DNA FP -1.3 and LANA-H2B inh -1.7.
`COc1cc2ccccc2cc1C(=O)Nc1ccc(O)cc1` gave Calb FLC 27, ALR H2O2 inh -10, Beta2AR agonist 16, RanGTP-Impb inh -2.6, HNF4A DNA FP 1.8 and LANA-H2B inh 4.2.
For Cc1ccc(NC(=O)Cn2c(=O)c3cccn3c3ccccc32)cc1 the results were Calb FLC -4, ALR H2O2 inh 0, Beta2AR agonist 3, RanGTP-Impb inh 3.0, HNF4A DNA FP -2.3 and LANA-H2B inh 3.8.
For CCN(C(=O)c1ccc(NC(C)=O)cc1)c1ccccc1C the results were Vif TR-FRET 3%, Calb FLC -3, ALR H2O2 inh -2, Beta2AR agonist -16, RanGTP-Impb inh 0.9, HNF4A DNA FP 2.2 and LANA-H2B inh 0.8.
For CSC(=NS(=O)(=O)c1ccc(N)cc1)NS(=O)(=O)c1cccs1 the results were Vif TR-FRET -4%, Beta2AR agonist 1 and HNF4A DNA FP -4.9.
For N=C1C(c2nc3ccccc3[nH]2)=C(O)CN1C1CCCCC1 the results were Vif TR-FRET 1%, Calb FLC 31, Beta2AR agonist -3, RanGTP-Impb inh 1.0, HNF4A DNA FP 0.4 and LANA-H2B inh 0.1.
